Source: PubChem
CtBP-E1A inh = qHTS Assay for Inhibitors of the CtBP/E1A Interaction; activity change, % (concentration not given with the values); AlphaScreen GST-E1A/His-CtBP binding, 1536-well; hits give low values; control for the full effect not named in the record; 340,000 compounds, 0.49% hits; CtBP / adenovirus E1A interaction (AlphaScreen); in the data active means activity change below about -65%; inconclusive means about -30% to -65%; inactive means above about -30%
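AlphaScreen with 125 nM GST-E1A and 125 nM His-CtBP (5X stocks) in Tris pH 8.0, 300 mM NaCl, BSA, Tween 20, TCEP. Compounds preincubated 2 h at 37 deg C, then glutathione donor/nickel acceptor beads added for 1 h at 37 deg C in dark.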
Six1-Eya2 blk = qHTS Assay for Inhibitors of the Six1/Eya2 Interaction | AlphaScreen GST-Six1/His-Eya2 binding, biochemical; hits give low values; control for the full effect not named in the record | activity change, % (test concentration not listed) | 360,000 compounds, 0.56% hits; in the data active = activity change below about -65%; inconclusive = about -30% to -65%; inactive = above about -30%
Target sequence (O00167 whole entry, looked up): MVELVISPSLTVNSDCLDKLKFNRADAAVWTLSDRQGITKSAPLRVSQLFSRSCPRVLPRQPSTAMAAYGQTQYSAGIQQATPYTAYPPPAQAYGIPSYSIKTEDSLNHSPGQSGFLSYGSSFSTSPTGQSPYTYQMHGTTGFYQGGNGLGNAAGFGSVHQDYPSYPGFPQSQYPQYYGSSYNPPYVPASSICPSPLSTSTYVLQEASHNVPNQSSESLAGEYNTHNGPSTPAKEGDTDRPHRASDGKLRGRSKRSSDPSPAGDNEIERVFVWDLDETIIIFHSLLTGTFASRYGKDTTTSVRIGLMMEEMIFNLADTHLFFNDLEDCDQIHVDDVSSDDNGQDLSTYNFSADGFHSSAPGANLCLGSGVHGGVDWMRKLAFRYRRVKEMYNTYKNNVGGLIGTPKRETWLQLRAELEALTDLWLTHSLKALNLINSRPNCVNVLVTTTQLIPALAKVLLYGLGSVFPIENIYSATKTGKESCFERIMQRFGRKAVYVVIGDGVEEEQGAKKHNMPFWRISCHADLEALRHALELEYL
Target sequence (Q15475 whole entry, looked up): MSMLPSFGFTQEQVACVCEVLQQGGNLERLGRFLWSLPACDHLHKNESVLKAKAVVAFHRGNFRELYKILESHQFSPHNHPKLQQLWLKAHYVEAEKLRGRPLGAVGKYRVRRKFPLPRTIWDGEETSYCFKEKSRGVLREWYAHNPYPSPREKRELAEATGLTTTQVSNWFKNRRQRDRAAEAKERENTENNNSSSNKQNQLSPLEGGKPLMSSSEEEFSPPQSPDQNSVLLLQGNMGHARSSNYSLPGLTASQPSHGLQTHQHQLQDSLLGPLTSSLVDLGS
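Compounds are tested against tagged Six1 and Eya2 proteins bridged by glutathione donor and nickel acceptor beads; after a one-hour incubation at 37 °C without light, AlphaScreen emission is recorded.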
An asterisk follows results filed as active. % is set by controls: 0 for no effect and ±100 for the full control effect. Not all compounds are listed; the hit share may differ from the screen's.

SMILES | CtBP-E1A inh | Six1-Eya2 blk
CC(C)C1C(=O)N(Cc2cn(Cc3ccco3)nn2)CCS(=O)(=O)N1Cc1ccc(-c2ccc(F)cc2)cc1 (stereo not given) | -4 | -7
CCC(C(=O)NC1CCCC1)n1c(C2CCCC2)nc2ccccc21 (stereo not given) | 1 | -1
Cc1cccc(C)c1NC(=O)C(c1ccccc1)n1c(-c2ccccc2)nc2ccccc21 (stereo not given) | -25 | -13
Cc1ccccc1CN1C(=O)CSCC1(C)C(=O)NCc1ccccc1 (stereo not given) | 9 | 2
COc1ccc(C(=O)C[C@@H]2OC[C@H](Cc3ccccc3)N2S(=O)(=O)c2ccc(C)cc2)cc1OC | -4 | -11
COc1ccc(N2c3ccccc3CN(Cc3ccccc3)[C@@H](C)[C@H]2Cc2c(C)cccc2C)cc1 | -13 | -14
CCCCCCCCN1C(=O)[C@H](CC(=O)NCc2ccc(C)o2)C[C@@]2(C(=O)OC)CC(C)(C)CC=C12 | 2 | -9
CCCCCCN1C[C@H](n2cc(COC(=O)c3ccccc3)nn2)[C@@H](O)C[C@@H]1c1ccc(C)cc1 | 1 | -3
Cc1cccc(S(=O)(=O)N(C)C[C@@H]2OCc3cnnn3CCCC(=O)N([C@@H](C)CO)C[C@@H]2C)c1 | 2 | 0
CC1(C(=O)NCc2ccccc2)CSCC(=O)N1Cc1cccc(C(F)(F)F)c1 (stereo not given) | -16 | -1
Cc1cccc(C)c1NC(=O)C1C(c2ccc3c(c2)OCO3)=Nc2ccccc2N1C(=O)c1ccccn1 (stereo not given) | -1 | -25
Cc1cc2c(cc1C)-c1nnnn1C(N1CCC(Cc3ccccc3)CC1)C(=O)N2 (stereo not given) | 2 | -10

Single entries from the list:
In CtBP-E1A inh, Cc1cccc(C)c1NC(=O)C1C(c2ccc3c(c2)OCO3)=Nc2ccccc2N1C(=O)c1ccccn1 (stereo not given) has the entry -1
In CtBP-E1A inh, COc1ccc(N2c3ccccc3CN(Cc3ccccc3)[C@@H](C)[C@H]2Cc2c(C)cccc2C)cc1 has the entry -13
In CtBP-E1A inh, Cc1cccc(S(=O)(=O)N(C)C[C@@H]2OCc3cnnn3CCCC(=O)N([C@@H](C)CO)C[C@@H]2C)c1 has the entry 2
In Six1-Eya2 blk, CC(C)C1C(=O)N(Cc2cn(Cc3ccco3)nn2)CCS(=O)(=O)N1Cc1ccc(-c2ccc(F)cc2)cc1 (stereo not given) has the entry -7
In Six1-Eya2 blk, CC1(C(=O)NCc2ccccc2)CSCC(=O)N1Cc1cccc(C(F)(F)F)c1 (stereo not given) has the entry -1
In CtBP-E1A inh, Cc1cc2c(cc1C)-c1nnnn1C(N1CCC(Cc3ccccc3)CC1)C(=O)N2 (stereo not given) has the entry 2

Next results follow.
SMILES | CtBP-E1A inh | Six1-Eya2 blk
COc1ccc(C(=O)C[C@@H]2OC[C@H](C)N2S(=O)(=O)c2ccc(C)cc2)cc1OC | -12 | -5
Cc1ccc(S(=O)(=O)Nc2ccccc2OC(C(=O)OC(C)(C)C)C(=O)OC(C)(C)C)cc1 | 0 | 3
COc1ccc(N2C(=O)c3ccccc3NC(=O)C2C(=O)Nc2ccc(N3CCOCC3)cc2)cc1 (stereo not given) | 10 | 0
Cc1ccc([C@H]2C[C@@H](n3cc(-c4ccc(F)cc4)nn3)[C@H](O)CN2CC2CCCCC2)cc1 | -2 | -2
COCc1cn(CC(C)n2c(=O)c3ccccc3n2Cc2cc(C(C)C)no2)nn1 (stereo not given) | 1 | -3
COc1ccc(C2=Nc3ccccc3N(C(=O)c3ccc(C(F)(F)F)cc3)C2C(=O)Nc2c(C)cccc2C)cc1 (stereo not given) | -17 | -5
COc1ccc(N2C(=O)c3ccccc3NC(=O)C2C(=O)NCCc2ccccc2F)cc1 (stereo not given) | -8 | -4
COCCN1C(=O)CSCC1(C)C(=O)Nc1ccc2c(c1)OCCO2 (stereo not given) | 1 | 10
COc1ccc([C@H]2C[C@H](O)[C@@H](n3cc(-c4ccc(F)cc4)nn3)CN2CC2CCCCC2)cc1 | -1 | -4
O=C(Nc1ccc(F)cc1)C(c1cc2ccccc2o1)N1CCN(c2cccc(C(F)(F)F)n2)CC1 (stereo not given) | 3 | -9
CC(C)NC(=O)C1(C)CSCC(=O)N1CC(F)(F)F (stereo not given) | -17 | 15
CSC[C@H]1CN(c2ccccc2)C(=O)[C@@H]1CC(=O)Nc1ccc(Br)cc1 | 1 | -2

Whole records as entered above. Order of screens: CtBP-E1A inh | Six1-Eya2 blk
Listed for `COCc1cn(CC(C)n2c(=O)c3ccccc3n2Cc2cc(C(C)C)no2)nn1` (stereo not given) = 1 | -3
Listed for `COc1ccc([C@H]2C[C@H](O)[C@@H](n3cc(-c4ccc(F)cc4)nn3)CN2CC2CCCCC2)cc1` = -1 | -4
Listed for `CCCCCCCCN1C(=O)[C@H](CC(=O)NCc2ccc(C)o2)C[C@@]2(C(=O)OC)CC(C)(C)CC=C12` = 2 | -9

Later entries
SMILES | CtBP-E1A inh | Six1-Eya2 blk
O=C(NC1CCCCC1)C(c1ccc(C(F)(F)F)cc1)n1c(=O)c(-c2ccco2)nc2ccccc21 (stereo not given) | 0 | 1
CC(C)(C)NC(=O)C(c1ccccc1)n1c(=O)c(-c2ccco2)nc2ccccc21 (stereo not given) | 5 | -14
Cc1noc(C)c1NC(=O)N(C)C[C@@H]1Oc2ncc(C#CC3CC3)cc2C(=O)N([C@@H](C)CO)C[C@@H]1C | 2 | 1
CCOC(=O)[C@]12CCCC=C1N(CCC1=CCCCC1)C(=O)[C@H](CC(=O)N1CCN(C(=O)C3CC3)CC1)C2 | -11 | -1
Cc1ccccc1S(=O)(=O)N1C(c2ccc(Cl)c(Cl)c2)CC=C(C(=O)O)C1c1cccc(Br)c1 (stereo not given) | -23 | 7
CC(C)[C@H](NC(=O)OC(C)(C)C)c1cc(C(=O)N(C)CCN(C)C)c(N)s1 | -2 | 2
Cc1ccc(S(=O)(=O)N2[C@@H](Cc3ccccc3)CO[C@H]2CC(=O)c2ccc(F)cc2)cc1 | 1 | -1
C[C@H](CO)N1C[C@H](C)[C@@H](CN(C)S(=O)(=O)c2ccc(C#N)cc2)OCc2cnnn2CCCC1=O | 7 | 1
COc1cc(CC(=O)N2c3ccccc3N=C(c3ccccc3)C2C(=O)NCc2ccccc2)cc(OC)c1 (stereo not given) | -8 | -13
CC(C)NC(=O)C1(C)CSCC(=O)N1Cc1cccc(C(F)(F)F)c1 (stereo not given) | -19 | 0
COCc1cn(CC[C@@H]2CC[C@@H](NC(=O)Nc3ccc4c(c3)OCO4)[C@@H](CO)O2)nn1 | -30 | -4
COc1cccc(C#Cc2ccc3c(c2)O[C@H](CN(C)S(=O)(=O)c2ccccc2F)[C@H](C)CN([C@H](C)CO)S3(=O)=O)c1 | 3 | -2

Three compounds drawn at random from those above:
SMILES | CtBP-E1A inh | Six1-Eya2 blk
COCc1cn(CC[C@@H]2CC[C@@H](NC(=O)Nc3ccc4c(c3)OCO4)[C@@H](CO)O2)nn1 | -30 | -4
COc1cc(CC(=O)N2c3ccccc3N=C(c3ccccc3)C2C(=O)NCc2ccccc2)cc(OC)c1 (stereo not given) | -8 | -13
CC(C)(C)NC(=O)C(c1ccccc1)n1c(=O)c(-c2ccco2)nc2ccccc21 (stereo not given) | 5 | -14

Other records follow:
SMILES | CtBP-E1A inh | Six1-Eya2 blk
COc1ccc(CNC(=O)C[C@@H]2C=C[C@@H](NS(=O)(=O)c3cccc(OC)c3)[C@@H](CO)O2)cc1 | 6 | 1
COc1cccc(NC(=O)N(C)C[C@H]2Oc3cc(Br)ccc3S(=O)(=O)N([C@H](C)CO)C[C@H]2C)c1 | -2 | -2
CC(C)[C@H](NC(=O)OC(C)(C)C)c1cc(C(=O)NCCc2c[nH]c3ccccc23)c(N)s1 | -6 | -13
CCCCN1C(=O)C(CC(=O)NCc2ccco2)CC(C(=O)N(C)C)=C1C (stereo not given) | 2 | 3
CC(C)C[C@H](NC(=O)c1[nH]cnc1C(=O)Nc1ccccc1F)C(=O)OC(C)(C)C | 0 | 2
FC(F)(F)c1cccc(-c2nc3ccccc3n2C(c2ccccc2)c2nc3ccccc3[nH]2)c1 (stereo not given) | -7 | -13
COC(=O)[C@@]12C[C@@H](CC(=O)N3CCCC3)C(=O)N(Cc3ccco3)C1=CCC(C)(C)C2 | 4 | -6
O=C(NCc1ccccc1)C1C(=O)Nc2ccccc2C(=O)N1Cc1ccccc1 (stereo not given) | 7 | 14
O=C1Nc2ccccc2-c2nnnn2C1N1CCCC1 (stereo not given) | 8 | 0
Cc1ccccc1S(=O)(=O)N1C[C@@H]2C(C(=O)C[C@@H]3C(=O)N(C)C(=O)[C@@H]32)[C@@H]1c1ccc(Cl)cc1 (stereo not given in full) | 7 | 8
COc1ccc(-c2cc3nc(C)cc(N4CCN(C(=O)c5ccco5)CC4)n3n2)cc1 | -1 | -1
CCC(C(=O)NC1CCCC1)n1c(-c2cc3ccccc3[nH]2)nc2ccccc21 (stereo not given) | 0 | -3
CCOC(=O)[C@]12CCCC=C1N(CCc1ccc(OC)c(OC)c1)C(=O)[C@H](CC(=O)NCCCCc1ccccc1)C2 | -19 | -22
O=C(C(=O)N1CCC(c2ccccc2)CC1)c1ccccc1 | 0 | -2
COc1ccc(N2CCN(C(=O)C(=O)c3ccc(F)cc3)CC2)cc1 | -3 | -5
COc1ccc2nc3n(c(=O)c2c1)-c1cc2ccccc2cc1C(=O)NC3Cc1ccccc1 (stereo not given) | 0 | -12
CC(C)(C)NC(=O)C1C(c2ccccc2)=Nc2ccccc2N1C(=O)c1ccc(C(F)(F)F)cc1 (stereo not given) | -7 | 0
COc1ccc(CN2C(=O)CN(S(C)(=O)=O)CC2(C)C(=O)Nc2ccc3c(c2)OCCO3)cc1OC (stereo not given) | -12 | -10
O=C(NC1CCCCC1)C(c1ccc(-c2ccccc2)cc1)n1c(=O)c(-c2ccco2)nc2ccccc21 (stereo not given) | 0 | -19
O=C(C[C@H]1C=C[C@@H](NC(=O)Cc2cccnc2)[C@@H](CO)O1)NCc1ccc2c(c1)OCO2 | 3 | -5
COc1cccc(C(C(=O)NCc2ccccc2)N2CCN(CCN3CCOCC3)CC2)c1OC (stereo not given) | 0 | 15
CCOC1=C2CN(S(=O)(=O)c3ccc(C)cc3)C(c3ccccc3)CC2N(S(=O)(=O)c2ccc(C)cc2)C(c2ccc(Br)cc2)C1 (stereo not given) | 0 | 6
O=c1c(-c2ccccc2)nc2ccccc2n1C(c1ccccc1)c1nc2ccccc2[nH]1 (stereo not given) | -22 | 0
CC(C)CCN1C(=O)CSCC1(C)C(=O)NC(C)C (stereo not given) | -1 | 0
COCCNC(=O)C1C(=O)Nc2ccccc2C(=O)N1Cc1ccccc1 (stereo not given) | 12 | 3
CN(Cc1ccc(Cl)c(Cl)c1)C(C(=O)NCc1ccccc1)c1ccco1 (stereo not given) | 6 | 6
COc1ccc(-c2ccc(CN3C(C)C(=O)N(Cc4cn(CCC5OCCO5)nn4)CCS3(=O)=O)cc2)cn1 (stereo not given) | -4 | 0
C[C@H](NC(=O)C[C@@H]1C=C[C@@H](NC(=O)CN2CCOCC2)[C@@H](CO)O1)c1ccccc1 | -15 | 5
COc1ccc(NC(=O)C[C@H]2C(=O)N(Cc3cccnc3)C[C@@H]2Cc2ccccc2)cc1 | 3 | -3
Cc1cccc(C)c1N1C(=O)c2ccccc2NC(=O)C1C(=O)NCc1ccco1 (stereo not given) | 0 | -7
Cc1cccc(C)c1NC(=O)C(CCc1ccccc1)N1CCC(c2ccccc2)CC1 (stereo not given) | 2 | -8
COc1ccc2cc(C3CC=C(COC(C)=O)CN3S(=O)(=O)c3ccccc3[N+](=O)[O-])n(C(=O)OC(C)(C)C)c2c1 (stereo not given) | 3 | -18
CCCCCNC(=O)C(c1ccc(OC)cc1)n1c(=O)c(-c2ccco2)nc2ccccc21 (stereo not given) | 14 | 0
CO[C@H]1CN(C)C(=O)c2cc(NC(=O)c3ccccc3)ccc2OC[C@H](C)NC[C@@H]1C | -14 | 1
COc1ccc(NC(=O)C[C@H]2C(=O)N(c3ccccc3)C[C@@H]2CSC)cc1 | -1 | -4
CC(C(=O)NCc1ccccc1)n1c(Cc2cc(F)cc(F)c2)nc2ccccc21 (stereo not given) | 5 | -5
CCC(=O)N(C)C[C@H]1Oc2ncc(C#Cc3cccnc3)cc2C(=O)N([C@@H](C)CO)C[C@@H]1C | -7 | -2
O=C(C(=O)N1CCC(Cc2ccccc2)CC1)c1ccccc1Br | 0 | -4
O=C(NC1CCCCC1)C(C1CC1)n1c(=O)c(-c2cc3ccccc3[nH]2)nc2ccccc21 (stereo not given) | 12 | 67
C[C@@H]1CCCCO[C@@H](CN(C)S(=O)(=O)c2ccc(F)cc2)[C@@H](C)CN([C@H](C)CO)C(=O)c2cc(NC(=O)c3ccccc3)ccc2O1 | -5 | -4
